Measles inh: inhibitors of measles virus growth in infected cells. infected Vero cells, GFP fluorescence, 64 h; stronger effect = lower value. z-score (no concentration beside the values). hit rate 0.1% among 33,000. AID 745;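 active = z-score under -3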;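 also: score is relative to mean and SD of the compound wells of a plate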
Numbers without * were called inactive. A portion of the library; count on the stated rates, not on these rows.

Measles inh,structure
-0.22,O=C(CN1C(=O)c2ccccc2C1=O)Nc1ccccc1C(=O)O
0.42,COc1cccc(N2CN(CCc3ccccc3)CNC2=S)c1
8.6,O=C(O)c1cccc(N2C(=O)c3cccc4c([N+](=O)[O-])ccc(c34)C2=O)c1
0.28,COc1ccc(OCc2nc3ccccc3n2Cc2cccc3ccccc23)cc1
2.1,COc1ccc(C(=O)Nc2ccc(Br)cn2)cc1
-1.2,CC(C)Oc1ccccc1C1Nc2ccccc2NC2=C1C(=O)CC(c1ccccc1)C2 (centres undefined)
-0.7,CCOc1cc2c(cc1OCC)C1C(C(=O)Nc3cccc(C(F)(F)F)c3)c3ccccc3C(=O)N1CC2 (centres undefined)
-0.64,O=C(C(=O)c1ccc(O)cc1)c1ccccc1
0.1,CCCCC(=O)Nc1nc(-c2ccccc2)c(C)s1
-0.4,COc1ccc(OC)c(C2NC(=O)NC(C)=C2C(=O)Nc2cc(C)cc(C)c2)c1 (centres undefined)
-1.6,Cc1cccc(CC(Cc2nc3ccccc3[nH]2)c2nc3ccccc3[nH]2)c1 (centres undefined)
-1.3,COc1cccc(N2C(=O)c3ccc(C(=O)Nc4cccnc4)cc3C2=O)c1

4 successive compounds from above, for reference:
Measles inh,structure
0.1,CCCCC(=O)Nc1nc(-c2ccccc2)c(C)s1
-0.4,COc1ccc(OC)c(C2NC(=O)NC(C)=C2C(=O)Nc2cc(C)cc(C)c2)c1 (centres undefined)
-1.6,Cc1cccc(CC(Cc2nc3ccccc3[nH]2)c2nc3ccccc3[nH]2)c1 (centres undefined)
-1.3,COc1cccc(N2C(=O)c3ccc(C(=O)Nc4cccnc4)cc3C2=O)c1

(listing goes on)
Measles inh,structure
0.83,Cc1ccc(N2C(=O)C3C4c5ccccc5C(C=Nc5ccc(O)cc5)(c5ccccc54)C3C2=O)cc1 (centres undefined)
-1.2,Cc1ccc(OC(=O)c2ccc([N+](=O)[O-])c(C)c2)c(-n2nc3ccccc3n2)c1
-0.78,COc1cccc(-c2cc(C(=O)NCCCn3ccnc3)c3ccccc3n2)c1
-0.77,CC1(C)CC2(CCO1)N1CC3([N+](=O)[O-])CN2CC([N+](=O)[O-])(C1)C3(C)C (centres undefined)
-1.6,CN(C1CCCCC1)S(=O)(=O)c1ccc2c(c1)c(=O)c(C(=O)NC1CCCCCCC1)cn2C
-0.37,O=C(O)CNc1nc2nc[nH]c2c(=O)[nH]1
0.1,CCCCCCNC(=O)C1CC(=O)N(c2ccc(C)c(Cl)c2)C1 (centres undefined)
0.85,CC(C(=O)Nc1ccc(Cl)cc1)N(c1ccccc1)S(C)(=O)=O (centres undefined)
-0.44,CCCCNC(=O)c1c(CO)cc(C)[nH]c1=O
-0.69,CCN(CC)S(=O)(=O)N1CCC(C(=O)N2CCN(C)CC2)CC1
0.7,Cc1cc(Br)ccc1NC(=O)COc1cccc(C(F)(F)F)c1
-1.4,COc1ccc(Cl)cc1NC(=O)c1c(NCc2cccnc2)sc2c1CCC(C)C2 (centres undefined)
1.1,COc1ccc(Br)cc1C1Nc2ccc3ncccc3c2C2=C1C(=O)CCC2 (centres undefined)
-0.55,O=C(NC1CCCCCCC1)C1c2ccccc2C(=O)N1CCCN1CCCCC1 (centres undefined)
-0.31,Cc1ccccc1Nc1nc(-c2ccc([N+](=O)[O-])cc2)cs1
0.07,CCCc1cc(=O)oc2c(C)c3occ(-c4ccc(Br)cc4)c3cc12
-0.54,Cc1cc(OCC(=O)Nc2ccccc2)ccc1Br
-0.23,O=C(NCc1ccccc1)c1cc2ccccc2oc1=O
-0.72,CCc1ccccc1NS(=O)(=O)c1ccc(OC)c(OC)c1
-1.1,O=[N+]([O-])c1ccc(N2CCCCC2)cc1NCc1ccc(Cl)cc1
-0.18,CCOc1ccc(C(=O)Cn2c(=O)n(Cc3ccco3)c(=O)c3cc(Cl)ccc32)cc1Cl
-0.33,Cc1cc(C)nc(NC(=O)C(C)N2C(=O)c3ccccc3C2=O)n1 (centres undefined)
-0.42,COc1ccc(N2C(=O)CSC2c2cccc(C(F)(F)F)c2)cc1 (centres undefined)
-0.44,Cc1c(C(=O)Nc2cccc(C(F)(F)F)c2)oc2ccc(S(=O)(=O)N3CCOCC3)cc12
1.4,CCOC(=O)C(C)Oc1ccc2c(C)c(Cc3ccccc3)c(=O)oc2c1 (centres undefined)
-0.79,CC(=O)Nc1ccc(N2C(=O)CC(NCCc3cccc(F)c3)C2=O)cc1 (centres undefined)
-0.62,CC1CCCCC1NC(=O)CN1CCN(Cc2ccc(Cl)cc2)C1=O (centres undefined)
1.2,CCCCNC(=O)c1ccc2c(c1)NC(=O)C(N1CCCCC1)S2 (centres undefined)
-0.91,O=C(NCCNCCO)c1c(O)c2cccc3c2n(c1=O)CC3
-1.6,O=C(Nc1cccc(C(F)(F)F)c1)c1ccc(Br)c([N+](=O)[O-])c1
-0.8,O=C(Nc1nc(-c2ccccn2)cs1)c1ccccc1Oc1ccccc1
1.2,CCC(C)NC(=O)CCS(=O)(=O)c1ccc(Br)cc1 (centres undefined)
2,Cc1ccc(N=Cc2ccc(OC(=O)c3ccccc3)c([N+](=O)[O-])c2)cc1
-1.1,Cc1ccc(-c2noc(CCC(=O)NC3CC3)n2)cc1
0.02,CCOc1cccc(C2C(C(=O)OC3CCCCC3)=C(C)NC3=C2C(=O)CC(c2ccc(OC)c(OC)c2)C3)c1 (centres undefined)
-0.5,O=C(NCCSc1c(-c2ccc(Br)cc2)[nH]c2ccccc12)c1ccco1
-0.35,O=[N+]([O-])c1ccc(N2CCN(S(=O)(=O)c3ccc(C4CCCCC4)cc3)CC2)cc1
3,COc1ccc2cc3cc(C(=O)N(C)c4ccc(Br)cc4)sc3nc2c1
-1.1,Oc1ccc(-c2nc3ccccc3[nH]2)cc1
0.76,CCC(C)NC(=O)c1ccc(N2CC3CC(C2)c2cccc(=O)n2C3)c(NC(=O)c2ccc(Br)o2)c1 (centres undefined)
-0.4,CCCC(=O)Nc1cc2nn(-c3ccccc3)nc2cc1C
-1.3,O=C(Nc1c2c(nn1-c1ccccc1)CSC2)c1ccc(Br)cc1
-0.03,O=C(CC(=O)c1ccccc1)Nc1ccc(C(=O)O)cc1
-0.46,O=C(Nc1ccc(-c2nc3ccccc3o2)c(O)c1)c1ccc(Br)cc1
-0.97,COC(=O)c1ccc(C(=O)Nc2nc3cc(N)c(C)cc3s2)cc1
-0.27,CCOc1ccc(-n2c(SCC(=O)Nc3ccc(C)cc3)nc3c([nH]c4ccccc43)c2=O)cc1
0.2,CC(C)CCOc1cccc(OCC(=O)NC2CCS(=O)(=O)C2)c1 (centres undefined)
-0.06,O=C(NCCCN1CCOCC1)C1CCCN(S(=O)(=O)N2CCCC2)C1 (centres undefined)

Shown as tab-separated lines: 2 of the compounds above.
Compound	Measles inh
CCN(CC)S(=O)(=O)N1CCC(C(=O)N2CCN(C)CC2)CC1	-0.69
Cc1cc(Br)ccc1NC(=O)COc1cccc(C(F)(F)F)c1	0.7

Next part
Measles inh,structure
0.58,CC1=C(C(=O)OCc2ccccc2)C(c2ccccc2)C2=C(CC(c3ccccc3)CC2=O)N1 (centres undefined)
-0.7,CC1CC2c3cccc(C(=O)O)c3C(=O)N2Cc2ccccc21 (centres undefined)
0.36,Cc1cc(C)cc(-n2cnc3cc(C(=O)NC4CCCCCC4)ccc32)c1
-0.21,Cc1ccc2c(c1)N(CC(=O)NCCc1ccccc1)C(=O)CO2
-0.78,Cc1ccc(-n2c(=O)c3sccc3n(Cc3ccccc3)c2=O)cc1F
-0.51,O=C(NCc1ccc2c(c1)OCO2)C1CCC(CNc2nc(=S)[nH]c3ccccc23)CC1 (centres undefined)
0.34,CCc1ccc(NC(=O)c2oc(=O)c3ccccc3c2-c2ccc(C)cc2)cc1
1.6,COc1ccc(C(=O)Nc2ccccc2)cc1S(=O)(=O)Nc1ccc(Br)cc1
0.08,COc1cccc(-c2nc(-c3ccc(NC(=O)c4ccc(Br)o4)cc3)no2)c1
-0.01,COc1cc2ccccc2cc1C(=O)Nc1ccc(NC(=O)c2ccccc2)c(C)c1
-1.1,COC(=O)c1ccc(N=C2SC(C(=O)Nc3ccc(C)c(Cl)c3)CC(=O)N2C)cc1 (centres undefined)
-1.1,FC(F)(F)c1cc(-c2ccc(Cl)cc2)nc(-n2cncn2)n1
-1.1,COc1cccc(C2/C(=C(\O)c3ccccc3)C(=O)C(=O)N2c2ccccc2)c1 (centres undefined)
0,CC1=C(C(=O)OCCCc2ccccc2)C(c2cccs2)NC(=O)N1C (centres undefined)
-0.64,O=C1C(=O)N(c2ccc(F)cc2)C(c2ccc(Br)cc2)/C1=C(\O)c1ccccc1 (centres undefined)
0.96,CCOc1cccc(=NC2CCCCC2)c2c(C)n(-c3cccc(OC)c3)c(C)c12
0.39,N#Cc1ccc(C(=O)Nc2nc(-c3ccc(F)cc3)cs2)cc1
-0.28,Fc1ccc(C2=CC(c3ccc(F)cc3)n3ncnc3N2)cc1 (centres undefined)
2,O=C(O)c1[nH]c2ccc(Cl)cc2c1CC(=O)N1CCN(c2ccccc2)CC1
-0.31,O=C(O)c1ccccc1C(=O)NCc1ccccc1
-1.4,CCOC(=O)C1=C(C)NC2=C(C(=O)CC(c3ccc(OC)cc3)C2)C1c1ccc(O)c(OC)c1 (centres undefined)
0.17,O=C(CSc1nnc(-c2cccnc2)n1Cc1ccccc1)Nc1ccc(F)cc1
0.09,CCCCNC(=O)C1CCN(S(=O)(=O)N2CCOCC2)CC1
0.98,O=C1NC(C=Cc2ccccc2)Nc2sc3c(c21)CCCC3 (centres undefined)
-0.32,CC(C)OC(=O)c1cccnc1SCC(=O)N(C)c1ccccc1
1,COc1ccc(-n2cccc2)cc1
-0.88,O=C(NCc1ccco1)c1cc(-c2ccc(Cl)s2)nc2ccccc12
-0.53,CCCCOC(=O)c1ccc2c(c1)C(=O)N(c1cccc(Cl)c1)C2=O
-0.17,CCCOc1ccc(C(=O)Nc2ccc(N3CCOCC3)cc2)cc1
-1.1,CCOC(=O)C1=C(C)NC(C)=C(C(=O)OCC)C1c1cn(-c2ccccc2)nc1-c1ccc(Cl)cc1
-0.28,CC(C)(C)c1ccc(OCC(=O)Nc2ccc(Cl)cn2)cc1
-0.59,Cn1c(=O)c2c(-c3ccccc3)n(Cc3ccccc3)cc2n(C)c1=O
-0.15,Cc1ccc(C(=O)Cn2nnc3ccccc32)cc1
-0.72,Cc1nc(-c2cccc(NC(=O)c3cccc([N+](=O)[O-])c3)c2)cs1
1,COc1ccc(NC(=O)c2cc(O)c3ccccc3c2)cc1
-3.1*,C=C1CSc2nc(=O)c3c4c(sc3n21)CCC4

As entered above:
`O=C(NCCSc1c(-c2ccc(Br)cc2)[nH]c2ccccc12)c1ccco1` – Measles inh: -0.5
`COc1cccc(N2CN(CCc3ccccc3)CNC2=S)c1` – Measles inh: 0.42
`Cc1c(C(=O)Nc2cccc(C(F)(F)F)c2)oc2ccc(S(=O)(=O)N3CCOCC3)cc12` – Measles inh: -0.44

(listing goes on)
Measles inh,structure
2.4,O=C(CCSCc1cccc(F)c1)NCCc1ccccc1
0.42,O=C1CSC(c2ccccc2[N+](=O)[O-])N1c1cccc(C(F)(F)F)c1 (centres undefined)
-1.6,Cc1ccc(S(=O)(=O)N(CCc2ccccc2)CC(=O)Nc2ccc(C)c(Cl)c2)cc1
-0.34,COc1cc2[nH]c(=O)n(Cc3ccc(C(=O)N4CCN(c5cccc(C)c5C)CC4)cc3)c(=O)c2cc1OC
0.64,N#Cc1cccc(NC(=O)Cn2ncc3c(=O)oc4ccccc4c32)c1
0.01,CCOc1ccc(-n2c(=O)c3c(C)c(C)sc3n(CC(=O)Nc3ccc(OC)cc3)c2=O)cc1
-0.11,COc1ccc(-c2ccc3c(N)c(C(=O)NCCc4ccc(Cl)cc4)sc3n2)cc1
-1.1,CC(=O)Nc1ccc(S(=O)(=O)Nc2ccc3c(c2)CCN3S(C)(=O)=O)cc1
-0.59,CCOC(=O)c1c(NC(=O)c2cc(-c3ccco3)on2)sc(C(C)=O)c1C
0.62,c1nc(SCc2ccc3c(c2)OCO3)c2c3c(sc2n1)CCCC3
-1.9,CCN(CC)C(=O)c1ccc2c(c1NCCO)C(=O)c1ccccc1C2=O
0.84,CN1C(=O)CC(C(=O)Nc2ccccc2F)SC1=Nc1ccc2c(c1)OCO2 (centres undefined)

Entries shown so far with a cyano group (two):
Measles inh,structure
0.39,N#Cc1ccc(C(=O)Nc2nc(-c3ccc(F)cc3)cs2)cc1
0.64,N#Cc1cccc(NC(=O)Cn2ncc3c(=O)oc4ccccc4c32)c1

Further entries:
Measles inh,structure
-1.1,CCOC(=O)C1C2C=CC3(CN(Cc4ccccc4)C(=O)C13)O2 (centres undefined)
-0.18,O=c1nc(C=Cc2cccn2-c2ccc([N+](=O)[O-])cc2)cc(C(F)(F)F)[nH]1
-0.14,N#Cc1c(-c2ccccc2)cc(-c2cccs2)nc1SCC(=O)Nc1cccc([N+](=O)[O-])c1
-1.6,O=C1CC(c2ccc(Cl)cc2)Oc2ccccc21 (centres undefined)
2.2,CCN1C(=O)CC(C(=O)Nc2ccc(F)cc2)SC1=Nc1cccc(C(F)(F)F)c1 (centres undefined)
-0.92,COC(=O)c1cc(NC(=O)c2ccc(N3CC4CC(C3)c3cccc(=O)n3C4)c([N+](=O)[O-])c2)cc(C(=O)OC)c1 (centres undefined)
-0.73,CC(C)c1ccc(NC(=O)c2cnc3n(c2=O)CCS3)cc1
-1.4,CC(C)(C)c1ccc(C(=O)Nc2ccc(-c3noc(-c4ccc([N+](=O)[O-])cc4Cl)n3)cc2)cc1
-1.4,O=C1CCCC2=C1C(c1cccs1)Nc1ccc(C(=O)c3ccccc3)cc1N2 (centres undefined)
-0.46,Cc1sc(C)c(CN2CCOCC2)c1CN1CCOCC1
0.69,COc1ccc(C(=O)C(=O)c2ccc(OC)c(OC)c2)cc1OC
-0.02,Cc1n[nH]c(C)c1CCCCCCOc1ccccc1Cl
0.63,CC(Cl)=CCSc1nc2c(c(=O)[nH]c(=O)n2C)n1Cc1cccc(Br)c1
1.4,COc1ccc(Br)cc1CN1CCN(Cc2ccc3c(c2)OCO3)CC1
-0.52,Cc1ccc(Nc2c(-c3ccc(Cl)s3)nc3ccccn23)cc1
